GIRK2 act: activators of human GIRK2 potassium channels. HEK293-GIRK2 thallium flux, Thallos fluorescence. actives 0.05% (n = 63,000). calls only for hits at 25 µM;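 active = among the strongest 0.2% of first-round signals and kept after retests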;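 also: first round at about 10 µM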
Target sequence (P48051 whole entry, looked up): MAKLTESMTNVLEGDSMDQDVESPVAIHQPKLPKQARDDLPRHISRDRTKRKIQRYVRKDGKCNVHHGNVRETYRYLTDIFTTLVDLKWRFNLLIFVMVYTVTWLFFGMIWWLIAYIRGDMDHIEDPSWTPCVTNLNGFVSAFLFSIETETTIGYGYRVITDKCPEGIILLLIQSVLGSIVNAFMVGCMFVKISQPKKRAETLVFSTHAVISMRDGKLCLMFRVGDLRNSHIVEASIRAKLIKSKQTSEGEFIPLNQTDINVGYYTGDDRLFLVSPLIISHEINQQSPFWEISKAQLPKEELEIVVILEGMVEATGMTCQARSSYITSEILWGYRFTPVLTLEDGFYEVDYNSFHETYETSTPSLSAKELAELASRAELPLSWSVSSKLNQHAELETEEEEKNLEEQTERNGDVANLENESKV
Calls only; i = inactive.

SMILES | GIRK2 act
COc1ccc(CNC(=O)Cc2csc(SCc3ccncc3)n2)cc1 | i
CS(=O)(=O)Oc1ccc2c(=O)c(Oc3ccccc3Br)coc2c1 | i
Cc1nn(C)cc1S(=O)(=O)NCCC1=CCCCC1 | i
Cc1cccc(-c2noc(C3CCN(CC(=O)Nc4ccc(C#N)cc4)CC3)n2)c1 | i
O=C(NCC(c1ccco1)N1CCOCC1)C(=O)NC1CCCCC1 (stereo not given) | i
COc1cccc(N2CCN(C(=O)Cn3cnc4c([nH]c5ccccc54)c3=O)CC2)c1 | i
CCOC(=O)c1cnn(-c2cc(C)nc3c(-c4ccccc4)c(C)nn23)c1N | i
Cc1csc(-c2nnc(NC(=O)c3cc(-c4ccco4)on3)o2)c1 | i
COc1ccc(F)cc1S(=O)(=O)N1CCC(c2ccccc2)C1 (stereo not given) | i
NC(=O)Cn1cc(-c2ccc(F)cc2)cn1 | i
O=C(NCC(Cc1cccc(F)c1)N1CCCC1=O)c1ccc[nH]c1=O (stereo not given) | i
O=C(c1cccc2ccccc12)N1CCN(c2cc(-n3cccc3)ncn2)CC1 | i
Cc1cc(C(=O)N(Cc2ccoc2)Cc2cccs2)no1 | i
Cc1ccccc1C(=O)N1CCN(c2ccc(-c3noc(C4CC4)n3)cn2)CC1 | i
O=C(Nc1oc2ccccc2c(=O)c1-c1ccc2c(c1)OCO2)C1CCCCC1 | i
O=C(/C=C/c1cccs1)N(CCCn1ccnc1)c1nc2c(F)cc(F)cc2s1 | i
C=CCOCC(O)Cn1c(NCCCOC)nc2c1c(=O)[nH]c(=O)n2C (stereo not given) | i
N#Cc1ccc(COCC2CCN(Cc3c(F)cccc3Cl)CC2)cc1 | i
COc1ccc(S(=O)(=O)N2CCN(c3cc(-n4nc(C)cc4C)ncn3)CC2)c(OC)c1OC | i
O=C(CSc1nnc(CCc2nc3ccccc3s2)o1)Nc1cccc2cccnc12 | i
COc1cc(NC(=O)Nc2ccc3c(c2)CCCN3C(=O)c2cccs2)cc(OC)c1 | i
N#CC1=CN(c2ccccc2Br)c2ccccc2S1(=O)=O | i
CCN(C1CCCCC1)S(=O)(=O)c1cc(Cl)c(OC)cc1Cl | i
CC(=O)Nc1ccc(S(=O)(=O)Nc2ccc(Oc3ccc(C)nn3)cc2)cc1 | i
CCCCCCCCCCCCCCCC(=O)OC[C@@H](O)COP(=O)([O-])OCC[N+](C)(C)C | i

Entries above that have fluorine, in the order listed:
SMILES | GIRK2 act
COc1ccc(F)cc1S(=O)(=O)N1CCC(c2ccccc2)C1 (stereo not given) | i
NC(=O)Cn1cc(-c2ccc(F)cc2)cn1 | i
O=C(NCC(Cc1cccc(F)c1)N1CCCC1=O)c1ccc[nH]c1=O (stereo not given) | i
O=C(/C=C/c1cccs1)N(CCCn1ccnc1)c1nc2c(F)cc(F)cc2s1 | i
N#Cc1ccc(COCC2CCN(Cc3c(F)cccc3Cl)CC2)cc1 | i

Later entries:
SMILES | GIRK2 act
O=C(Cc1noc2ccccc12)N1CCN(c2nc3c(C(F)(F)F)cccc3s2)CC1 | i
COCCCn1c(C(=O)Nc2cc(Cl)ccc2OC)cc2c(=O)n3ccccc3nc21 | i
Cc1c(-c2noc(-c3cccc(F)c3)n2)nnn1-c1ccc(F)cc1 | i
CC(=O)Cn1c(=O)c2c(nc3n2CC(C)CN3c2ccccc2)n(C)c1=O (stereo not given) | i
O=C(CCCc1ccccc1)N1CCOC(Cc2ccccc2)C1 (stereo not given) | i
O=C(NC1CCN(Cc2ccccc2)CC1)C(c1ccccc1)n1cccc1 (stereo not given) | i
COc1ccc(NC(=O)c2cc3cccnc3n(C)c2=O)cc1OC | i
Cc1cc(C)nc(N2CCN(c3cc(C)nc4nc(C(F)(F)F)nn34)CC2)n1 | i
COc1cccc(Nc2c(C(=O)N3CCOCC3)cnc3nc(C)ccc23)c1 | i
Cc1ccc(-n2nnc3c(=O)n(CC(=O)N4CCN(c5ccccc5)CC4)cnc32)cc1C | i
CCOc1cc(C)ccc1S(=O)(=O)N1CCOCC1 | i
O=C(NCCCn1ncccc1=O)C1COc2ccccc2O1 (stereo not given) | i
O=C(CSc1nnc(CCc2nc3ccccc3[nH]2)o1)N1CCC2(CC1)OCCO2 | i
O=C(Nc1nnc(-c2ccc(Br)s2)o1)c1cc2ccccc2oc1=O | i
COc1cccc2sc(N3CC(OC(=O)c4cccc(S(=O)(=O)C(C)C)c4)C3)nc12 | i
COC(=O)CCC(=O)Nc1ccc(S(=O)(=O)N2CCCC2)cc1 | i
CCN(CC)CCN1C(=O)C(O)=C(C(=O)c2cc3ccccc3o2)C1c1ccncc1 (stereo not given) | i
O=C(Cc1ccc(F)cc1)NCCOc1cc(N2CCCC2)ncn1 | i
COc1ccc(NC(=O)CSc2cc(N3CCN(c4ccccc4OC)CC3)ncn2)c(OC)c1 | i
C=CCNc1nn(CC(=O)Nc2c(C)cccc2CC)c(N)c1-c1nc(-c2ccc(Cl)cc2)no1 | i
CCCn1c(=O)c2cc(Cl)ccc2n2c(SCC(=O)Nc3ccc(OC)c(OC)c3)nnc12 | i
CN1CCN(NC(=O)C(=O)Nc2ccc(OC(F)(F)F)cc2)CC1 | i
COc1cccc(CSc2nc(CC(=O)NC(C)c3ccccc3)cc(=O)[nH]2)c1 (stereo not given) | i
COc1cccc(Oc2coc3cc(OC(=O)C4CCCCC4)ccc3c2=O)c1 | i
CC(Cc1ccco1)NC(=O)c1nc2ccccc2s1 (stereo not given) | i

Filtered by structure, those above with a CF3 group.
SMILES | GIRK2 act
O=C(Cc1noc2ccccc12)N1CCN(c2nc3c(C(F)(F)F)cccc3s2)CC1 | i
Cc1cc(C)nc(N2CCN(c3cc(C)nc4nc(C(F)(F)F)nn34)CC2)n1 | i
CN1CCN(NC(=O)C(=O)Nc2ccc(OC(F)(F)F)cc2)CC1 | i

An excerpt from the list above:
SMILES | GIRK2 act
O=C(NC1CCN(Cc2ccccc2)CC1)C(c1ccccc1)n1cccc1 (stereo not given) | i
COc1ccc(NC(=O)c2cc3cccnc3n(C)c2=O)cc1OC | i
Cc1cc(C)nc(N2CCN(c3cc(C)nc4nc(C(F)(F)F)nn34)CC2)n1 | i
COc1cccc(Nc2c(C(=O)N3CCOCC3)cnc3nc(C)ccc23)c1 | i
Cc1ccc(-n2nnc3c(=O)n(CC(=O)N4CCN(c5ccccc5)CC4)cnc32)cc1C | i
CCOc1cc(C)ccc1S(=O)(=O)N1CCOCC1 | i

(further entries)
SMILES | GIRK2 act
O=C(c1ccncc1)N1CCC(CNS(=O)(=O)c2ccc(OC(F)(F)F)cc2)CC1 | i
CCCS(=O)(=O)N1CCc2ccc(NC(=O)Nc3c(F)cccc3F)cc2C1 | i
COc1cccc(NC(=O)Cn2nc3ccc(-c4ccc(Cl)cc4)nn3c2=O)c1 | i
O=S(=O)(NCCN1CCN(c2ccccc2)CC1)c1cccc(F)c1 | i
COc1cc2[nH]c3c(=O)n(CC(=O)NCc4ccc(Cl)cc4)cnc3c2cc1OC | i
Cc1ccc(C)c(NC(=O)CSc2nncc3ccccc23)c1 | i
COc1ccccc1N1CCN(CCNC(=O)Nc2cccs2)CC1 | i
N#C/C(=C\Nc1ccc(C(N)=O)cc1)c1nc(-c2cccs2)cs1 | i
CC(=O)C(C)n1c(=O)c2c(nc3n(-c4cccc(C)c4C)c(C)cn23)n(C)c1=O (stereo not given) | i
O=C(Oc1ccc(/C=C/c2ccncc2)cc1)c1cccs1 | i
CCS(=O)(=O)Nc1ccc(-n2nnc(C(N)=O)n2)cc1 | i
COc1ccc(-c2ccc(=O)n(CCNS(=O)(=O)c3ccccc3F)n2)cc1 | i
COc1ccc(CCNC(=O)CN2CC(c3nc(C)no3)C2)cc1OC | i
Cc1cc(C(=O)NCC2CCN(C(=O)c3cccnc3)CC2)c(C)o1 | i
CCCCC[C@H](O)CC[C@@H]1C2Cc3cccc(C)c3CC2C[C@H]1O (stereo not given in full) | i
C=CCNC(=O)C1CCCN(c2nc3c(-c4ccccc4C)csc3c(=O)[nH]2)C1 (stereo not given) | i
Cc1cccc(Cn2c(=O)c3c(N4CCN(C(=O)c5ccco5)CC4)ccnc3n(C)c2=O)c1 | i
O=C(Nc1nccs1)C1CCN(C(=O)C2(c3cccs3)CCCC2)CC1 | i
COC(=O)C1(Cc2ccc(O)c(CC=C(C)C)c2)OC(=O)C(OC)=C1c1cc(O)c(O)c(CC=C(C)C)c1 (stereo not given) | i
c1ccc(-c2nnc(CNC3CCCCCC3)o2)cc1 | i
COCCNC(=O)c1cc2c(=O)n3cccc(C)c3nc2n(Cc2cccnc2)c1=N | i
CCC(=O)N1CCCc2cc(NC(=O)c3ccc(OC)c(OC)c3)ccc21 | i
COc1ccc(NC(=O)Nc2nc(CCC(=O)NCc3cccs3)cs2)cc1 | i
Cc1cc(C(=O)Nc2ccc3c(c2)C(=O)N2CCCCC2CCO3)c(C)o1 (stereo not given) | i
Cc1ccc(-n2c(C)cn3c4c(=O)n(CCN5CCOCC5)c(=O)n(C)c4nc23)c(C)c1 | i
Following part:
SMILES | GIRK2 act
C=CCNC(=O)C(=O)NCCC1CCCCN1S(=O)(=O)c1c(C)cc(C)cc1C (stereo not given) | i
Cc1ccc(SCC(=O)N2CCCCC2)cc1 | i
CCCCC[C@@](C)(O)/C=C/[C@H]1[C@H](O)CC(=O)[C@@H]1C/C=C\CCCC(=O)O | i
O=C(NCCC1=CCCCC1)C1CCN(c2ncccc2S(=O)(=O)N2CCOCC2)CC1 | i
Cc1nc(-c2cccs2)sc1CNC(=O)c1ccc(S(=O)(=O)N2CCCC2)cc1 | i
Cc1c(C(=O)N(C(=O)N2CCCCC2)C(C)(C)C)cccc1[N+](=O)[O-] | i
Cc1c(C)n(CC(O)CN2CCN(CCO)CC2)c2c(Cl)cccc12 (stereo not given) | i
Cc1ccc(Cn2cc(-c3noc(-c4cccc(N(C)C)c4)n3)nn2)cc1 | i
CCOC(=O)N1CCN(C(=O)c2cn(CC(O)c3ccccc3)nn2)CC1 (stereo not given) | i
Cc1nc(-c2cccc(NC(=O)c3coc(NC(=O)C4CC4)n3)c2)cs1 | i
COc1ccc(CNC(=O)N(Cc2ccsc2)CC(F)(F)F)cc1OC | i
Cc1nc(-c2nnc(NC(=O)Cn3cnc4c3c(=O)n(C)c(=O)n4C)o2)cs1 | i
O=C(c1ccc2c(c1)OCCO2)N1CCC(Oc2nc3ccccc3s2)CC1 | i
COc1ccc2[nH]cc(CCNc3ccc(S(=O)(=O)C(C)(C)C)nn3)c2c1 | i
CCOC(=O)C1=C(C)NC(C)=C(C(=O)OC)C1c1cccc(Cl)c1Cl (stereo not given) | i
COc1ccc(-c2c(C)c3ccc4c(c3oc2=O)CN(CCN2CCOCC2)CO4)cc1 | i
CCN(CC)CCNC(=O)c1ccc(-c2ccccc2)cc1 | i
Cc1cccc(N2CCN(C(=O)c3sc4ncccc4c3-n3cccc3)CC2)c1 | i
O=C(Nc1nccs1)c1ccc2nc(-c3ccccc3)c(-c3ccccc3)nc2c1 | i
CCOc1ccccc1NC(=O)c1cc2c(=O)n(C)c(=O)n(C)c2n1CCCOC | i
Cc1cc(C(=O)N2CCOCC2)n(CC(=O)NCCCN2CCCC2=O)n1 | i
O=C(Cn1cnc2ccccc2c1=O)NCc1cnn2ccccc12 | i
O=C(Nc1nc(C(=O)Nc2cccc3nsnc23)co1)c1ccccc1 | i
O=S(=O)(Nc1ccc2c(c1)N(S(=O)(=O)c1ccc(F)cc1)CCC2)c1ccccc1 | i
O=C(CCCSc1ccc(NC(=O)c2ccco2)nn1)NC1CCCCCC1 | i
(further entries)
SMILES | GIRK2 act
COCC1CCCN(C(=O)CCC2CCCCC2)C1 (stereo not given) | i
CCn1c(=NC(=O)c2ccnn2C)sc2cc3c(cc21)OCO3 | i
Cc1cn2c3c(=O)n(Cc4ccc(Br)cc4)c(=O)n(C)c3nc2n1CCO | i
CCc1ccc(S(=O)(=O)NCCOc2ccccc2)s1 | i
CC(NC(=O)c1nnn(-c2ccccc2Cl)c1-c1ccncc1)c1ccc(F)cc1 (stereo not given) | i
COCCCNc1ncc2c(=O)n(-c3ccccc3)c(=O)[nH]c2n1 | i
C=CCn1c(=O)c(C(=O)Nc2cc(F)ccc2F)c(O)c2ccccc21 | i
O=C(NCCCc1ccccc1)C1CCN(c2ncccc2S(=O)(=O)N2CCOCC2)CC1 | i
O=C(NCC12CC3CC(CC(C3)C1)C2)Nc1cccc(C(F)(F)F)c1 | i
CCOc1ccc(NC(=O)c2nnn(-c3ccc(C)c(C)c3)c2-c2cccnc2)cc1 | i
O=S1(=O)CCC(CNS(=O)(=O)c2c(F)cccc2F)C1 (stereo not given) | i
CC(C)(C)n1c(=O)c2cc(F)ccc2n1CC(=O)NCc1ccccc1 | i
O=C(CN1CCC(COCc2ccc(Cl)cc2)CC1)NCC1CCCO1 (stereo not given) | i
COc1cccc(/C=C2\Oc3cc(OCC#N)ccc3C2=O)c1 | i
CN(C(=O)Cn1cnc2c(-c3ccc(Cl)cc3)csc2c1=O)c1ccc(F)cc1 | i
CCOC(=O)C1CCN(C(=O)C2(c3cccs3)CCCC2)CC1 | i
Cc1ccc(-n2cc(C(=O)NC3CCCCC3)nn2)cc1 | i
O=C(Cn1nc2c(c1NC(=O)c1cc(=O)c3ccccc3o1)CSC2)NCc1ccco1 | i
CCOc1ccccc1CNC(=O)CCc1nnc2ccc(-c3ccccc3)nn12 | i
Cc1cc(C)n(CC(=O)Nc2ccccc2Cl)c(=O)c1C#N | i
Cc1ccc(N2CCC(C(=O)Nc3cccc(Cl)c3C)CC2)nn1 | i
Cc1cc(CNC(=O)C(=O)Nc2ccc3c(c2)OCO3)c(C)o1 | i
C#CCSc1c(CCCC)cnc2c1c(=O)n(C)c(=O)n2C | i
O=C(NCc1cccs1)N1CCCSCC1CN1CCCC1 (stereo not given) | i
COc1ccccc1/C=C1\SC(=S)N(c2ccc(NC(C)=O)cc2)C1=O | i
Following part.
SMILES | GIRK2 act
CCCN1C(=O)CCc2cc(NC(=O)c3ccc(OC)cc3)ccc21 | i
NS(=O)(=O)c1ccc(CCNc2nccn(-c3ccc(Br)cc3)c2=O)cc1 | i
O=C(NCc1cnn2ccccc12)NC1CCCCC1 | i
Nc1ccc(S(=O)(=O)NCc2cccnc2)cc1 | i
COc1cccc(C(O)=C2C(=O)C(=O)N(Cc3cccnc3)C2c2ccccn2)c1 (stereo not given) | i
O=C(c1ccc2ccccc2n1)N1CCC(COCc2ccc(Cl)cc2)CC1 | i

From PubChem BioAssay

The list is partial; rates above refer to the full screens.
